Mtb MenB inh – Mtb MenB enzyme inhibition | inhibition, %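 (about 12 µg/mL by stock and volumes)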 | 0.43% of 100,000 active | MenB enzyme assay, absorbance read-out; some hits fall short of the stated cut;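 active = mean of two replicates above 30%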;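 also: 0% = no compound and 100% = wells with inactive enzyme; the first replicate is given; strong numbers were not always called active; inactives centre near -10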
Polio RdRp inh – poliovirus RNA polymerase inhibition; P03300; poliovirus polymerase elongation, fluorescence polarization; hits give low values; % elongation, % (compound at 16.7 µg/mL); 0.66% of 150,000 active; AID 588519; in the data active = % elongation below about 90%; also: some results filed as inactive read as strong as hits
Target sequence (P03300 1749-2209 limits assumed): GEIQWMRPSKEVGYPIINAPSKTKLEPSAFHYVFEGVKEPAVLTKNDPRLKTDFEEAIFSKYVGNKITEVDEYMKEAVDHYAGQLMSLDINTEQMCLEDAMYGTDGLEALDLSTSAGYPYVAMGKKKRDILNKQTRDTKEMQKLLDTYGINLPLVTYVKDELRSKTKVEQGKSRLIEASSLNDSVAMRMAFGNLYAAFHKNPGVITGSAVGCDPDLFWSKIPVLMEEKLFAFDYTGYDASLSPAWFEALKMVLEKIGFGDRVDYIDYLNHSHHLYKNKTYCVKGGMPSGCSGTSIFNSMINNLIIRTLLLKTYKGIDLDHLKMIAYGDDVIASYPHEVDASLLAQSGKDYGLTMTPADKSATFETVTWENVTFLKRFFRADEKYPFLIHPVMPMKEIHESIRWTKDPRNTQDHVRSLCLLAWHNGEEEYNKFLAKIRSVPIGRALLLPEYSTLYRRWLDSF
Mtb MbtI inh – blocks the Mycobacterium tuberculosis siderophore enzyme MbtI; purified MbtI enzyme, fluorescence intensity read-out; inhibition, %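 (about 17 µg/mL by stock and volumes)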; 0.89% of 100,000 active; AID 493033;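 active = above 50% in both replicates, above 80% if mildly self-fluorescent; inactive = the rest, strongly fluorescent compounds included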;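 also: 0% = mean of negative and 100% = mean of positive controls; one replicate is shown; some compounds called inactive have numbers as strong as hits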
Target sequence (P9WFX0 whole entry, looked up): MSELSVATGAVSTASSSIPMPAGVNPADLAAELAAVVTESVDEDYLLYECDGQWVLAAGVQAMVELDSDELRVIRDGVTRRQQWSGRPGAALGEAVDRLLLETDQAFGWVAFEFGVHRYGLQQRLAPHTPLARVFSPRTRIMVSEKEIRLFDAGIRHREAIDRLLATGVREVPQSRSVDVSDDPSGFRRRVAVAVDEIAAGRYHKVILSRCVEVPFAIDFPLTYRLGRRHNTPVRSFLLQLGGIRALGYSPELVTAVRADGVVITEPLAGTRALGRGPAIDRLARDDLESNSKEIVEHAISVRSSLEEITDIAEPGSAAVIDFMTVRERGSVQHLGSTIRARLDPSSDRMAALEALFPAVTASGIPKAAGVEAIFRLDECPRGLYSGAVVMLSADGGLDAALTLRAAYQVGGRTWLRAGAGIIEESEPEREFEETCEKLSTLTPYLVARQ
Polio RdRp inh intensity – recorded beside Polio RdRp inh, whose call it bears; % elongation; measured here: total intensity read-out; formula for this scale not given here;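 total fluorescence in place of polarization; lower means less elongation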
Starred values were filed as active, the others as inactive; nt = not tested or not shown.

Preview:
SMILES	Mtb MenB inh	Polio RdRp inh	Polio RdRp inh intensity	Mtb MbtI inh
CCCSc1nc(C)cc(=O)[nH]1	4	100	104	14
O=C(CSc1ncn[nH]1)N1N=C2/C(=C/c3ccco3)CCCC2C1c1ccco1 (configuration not stated)	-39	105	107	-7

Main list, repeating the preview:
SMILES	Mtb MenB inh	Polio RdRp inh	Polio RdRp inh intensity	Mtb MbtI inh
CCCSc1nc(C)cc(=O)[nH]1	4	100	104	14
O=C(CSc1ncn[nH]1)N1N=C2/C(=C/c3ccco3)CCCC2C1c1ccco1 (configuration not stated)	-39	105	107	-7
O=C(OCC(=O)N1c2ccccc2Sc2ccccc21)c1ccc(Br)o1	15	106	99	11
Cc1cc(C)n(Cc2c(Cl)cccc2Cl)n1	14	103	105	3
Cc1ccsc1C(=O)Nc1nccs1	nt	98	102	-2
N#CCCCSc1nnc(-c2ccccc2F)n1-c1ccccc1	-24	107	110	2
CCCc1nc2ccccc2[nH]1	nt	105	110	-3
CCOC(=O)c1sc(SCC(=O)c2ccc(Cl)cc2Cl)nc1C	1	86*	85*	0
COc1ccc(N=c2cc(-c3ccc(OC)cc3)oc3ccc(O)cc23)cc1	-103	102	101	-9
CCc1ccc(OCC(=O)Nc2ccc(-c3nc4ccccc4o3)c(O)c2)cc1	-39	100	102	-6
CCOc1cccc(OCC)c2c(C)nc(C)c1-2	nt	102	106	-2
COc1ccc(Cn2c(C)c(CNC(C)(C)C)c(C(=O)O)c2C)cc1	12	100	101	8
O=S(=O)(Cc1ccccc1)N1CCC(On2nnc3ccccc32)CC1	2	103	104	-18
Cc1cccc(NC(=O)CNC(=O)c2ccc3c(=O)[nH]c(CN4CCOCC4)nc3c2)c1C	3	99	97	22
CC(C(=O)O)n1nnc2ccccc21 (configuration not stated)	4	101	104	-15
CCCOC(=O)c1ccc(NC(=O)/C=C/c2ccccc2)cc1	-5	100	94	7
NNC(=O)c1ccc(NN)cn1	-64	104	108	-2
Cc1cccc(NC(=O)CSCc2n[nH]c(=O)[nH]2)c1C	-12	99	101	-15
Cc1cc2nc(N3C(=N)SCC3=O)sc2cc1C	-54	106	110	2
Cn1cnnc1SCC(N)=O	-13	102	102	1
CCc1ccc(CNC(=O)CN(C)c2nnc(N3CCCC3=O)s2)cc1	-7	104	103	-10
CC(C)C(NC(=O)Cc1ccccc1)C(=O)N1CCN(S(=O)(=O)c2ccccc2C#N)CC1 (configuration not stated)	5	108	111	-10
CC1OCC(OC(=O)c2ccccc2)CO1 (configuration not stated)	13	102	102	6
O/N=C1\CCOc2ccc3ccccc3c21	-7	101	93	20
O=C(COC(=O)Cn1ccc(=O)[nH]c1=O)Nc1ccc(F)cc1	-18	101	106	-6
COc1ccc(/C=N/NC(=S)NC(C)C)cc1	-61	97	95	13
O=C1OC(N2CCOCC2)c2ccccc21 (configuration not stated)	-12	nt	nt	-2
O=C(O)C1CC=CCC1Cc1ccccc1 (configuration not stated)	1	104	102	-24
COC(CNC(=O)CN1CCN(Cc2ccccc2)C1=O)OC	-6	100	104	-6
CC(=O)Nc1cc(NC(C)=O)c2nc(N)sc2c1	-19	101	102	8
Cc1cccc(Nc2nnc(SCC(=O)Nc3sccc3C#N)s2)c1C	-28	112	112	-6
Cc1ccc(C)c(OCc2nnc(SCN3C(=O)c4ccccc4C3=O)o2)c1	-50	102	105	2
O=C(CNCC1CCCCC1)Nc1ccccc1N1CCCCC1	2	100	103	2
CC(=O)N(c1ccccc1)c1nc(COC(=O)c2cnc(C)cn2)cs1	-33	115	115	-9
COc1ccc(CCNC(=O)CSc2nnc3sc4ccccc4n23)cc1	-9	105	104	-2
O=c1c2c3nc4ccccc4nc3n(Cc3ccco3)c2ncn1Cc1ccco1	-53	101	107	166
CN1C(=O)c2ccccc2C(C(=O)NCCN(Cc2ccco2)C2CCCC2)C1c1cccs1 (configuration not stated)	-22	103	100	1
COc1ccccc1NC(=O)C12CC3CC(CC(C3)C1)C2	-19	102	103	-4
CCCC12CN3CC(C)(CN(C1)C3c1c(C)n(C)c3ccccc13)C2=O (configuration not stated)	2	101	102	-13
O=C(OCC(=O)N1N=C2/C(=C/c3ccco3)CCCC2C1c1ccco1)c1ccccn1 (configuration not stated)	3	106	103	18
Cc1nn(-c2ccc(Cl)cc2)c(N)c1C1(O)C(=O)Nc2ccc(F)cc21 (configuration not stated)	17	102	97	13
CCOC(=O)c1[nH]c(=O)[nH]c1CSC(=N)N	9	96	106	15
CC(C(=O)Nc1ccccc1C(=O)N1CCCC1)n1nnc2ccccc21 (configuration not stated)	17	101	103	33
NNC(=O)C1CCCNC1=O (configuration not stated)	-2	106	108	99
O=C(O)c1ccc(OCCN2CCCC2=O)cc1	2	101	102	2
CC(NC(=O)COc1ccccc1C(C)(C)C)c1ccccc1 (configuration not stated)	2	102	105	-7
C=CCSc1nc(O)c(CC(C)C)c(=O)[nH]1	-7	101	102	-1
COC(=O)C1C(=O)/C(=C/N(C)C)C(=O)CC1(C)C (configuration not stated)	-43	105	99	16
C/C(=N\NC(=O)COc1ccccc1)C1C(=O)c2ccccc2C1=O	-54	101	101	-1
CCOc1ccc(-c2nc3s/c(=C\C4=Cc5ccccc5OC4)c(=O)n3n2)cc1	-1	102	106	0
Continuation.
SMILES	Mtb MenB inh	Polio RdRp inh	Polio RdRp inh intensity	Mtb MbtI inh
NS(=O)(=O)c1ccc(CNC(=O)/C=C/c2ccccc2)cc1	8	101	104	-12
O=C(O)CC12CC3CC(C1)CC(CC(=O)O)(C3)C2	-2	103	104	0
Cc1ccc2[nH]c3c(c2c1)CCCC3C(=O)O (configuration not stated)	5	100	104	-4
O=C(c1csc2c1CCCC2)N1CCN(S(=O)(=O)c2cccs2)CC1	-27	101	102	-9
O=C(CNc1cccc(F)c1)N1CCc2ccccc2C1	nt	102	102	0
COCCCN1CC23C=CC(O2)C(C(=O)OC)C3C1=O (configuration not stated)	-10	101	100	4
O=C(Nc1ccc(F)cc1)C(=S)NC1CCCCC1	3	105	106	-4
N#CCNS(=O)(=O)c1ccccc1	-2	103	104	-25
Cc1ccc(S(=O)(=O)N2CCN(C(=O)c3n[nH]c(=O)c4ccccc34)CC2)cc1	7	109	99	14
Cc1cccc(Nc2nnc(-c3ccc(C)c(S(=O)(=O)NCCO)c3)c3ccccc23)c1	-26	106	107	13
COc1ccc(NC(=O)COC(=O)C23CCC(=O)N2c2ccccc2S3)cc1 (configuration not stated)	-7	100	101	-9
O=C(Oc1ccc(OCc2ccccc2)cc1)c1ccc(-n2cnnn2)cc1	-3	105	110	nt
CN(Cc1nc(-c2ccccc2)no1)S(=O)(=O)c1ccccc1	-11	101	104	-10
CC1CCCCN1C(=O)CSc1nnc2ccccn12 (configuration not stated)	nt	101	104	71
CCOc1ccc(NC(=O)COn2nnc3ccc(S(=O)(=O)N4CCOCC4)cc32)cc1	1	97	79	-21
CCCn1cnc2cc(NCc3cccc(OC)c3)ccc21	-1	101	108	-8
COc1ccc(OC)c(-c2c[n+](=O)c3c(n2[O-])CCCC3)c1	-26	102	97	9
CC(CC(=O)N1CCCCCC1)c1ccccc1 (configuration not stated)	-10	101	101	-3
CCOC(=O)c1ccccc1NC(=O)/C=C1/Nc2ccccc2NC1=O	-12	104	113	-11
O=C1CCCN1CCCNCc1ccc(-n2cnc3ccccc32)cc1	6	94	96	-10
CC1CC(Nc2ncnc3c2cnn3C)CC(C)(C)C1 (configuration not stated)	-4	101	104	-5
COc1ccc(C(=O)NCc2cc3cc(Cl)ccc3[nH]2)cc1COc1ccccc1Cl	-20	102	99	-2
Cc1c2c(n3c(nc4ccccc43)c1C#N)N(CCN1CCOCC1)CC2	-58	99	105	13
COC(=O)c1ccc(NC(=O)CC23CC4CC(CC(C4)C2)C3)cc1	nt	101	100	-2
COC(=O)c1cc(OC(=O)c2ccccc2Br)n(C)n1	-20	102	102	15
Cc1csc(=O)n1CN1CCN(C(=O)C2COc3ccccc3O2)CC1 (configuration not stated)	7	101	103	26
COc1ccc(-c2nsc(SCC(N)=O)n2)cc1	1	101	107	3
CCOc1ccc(/C=N/OC(C)C(=O)NCc2ccc3c(c2)OCO3)cc1 (configuration not stated)	-6	98	101	4
COc1ccc2[nH]cc(NC(=O)NCCO)c(=O)c2c1	-28	104	104	90
COc1ccc(CCNC(=S)NCCc2ccccc2)cc1OC	-31	101	110	-14
CN(C(=O)CCC(=O)O)C1CCCCC1	-12	99	102	-3
O=C(Nc1cccc(C(F)(F)F)c1)c1ccc(-c2ccccc2)cc1	-28	101	104	9
O=C(Nc1ncccc1O)c1ccc(Oc2ccccc2)cc1	nt	101	101	0
Cc1ccc(CN2CCN(C(=O)C3CC=CCC3C(=O)O)CC2)cc1 (configuration not stated)	-24	107	100	-8
O=C(OCc1cn2cc(Cl)ccc2n1)C1=NN(c2ccccc2)C(=O)CC1	-23	102	105	-11
CC1(N=Cc2ccccc2)CCS(=O)(=O)C1 (configuration not stated)	10	105	111	-3
Cc1cc2c(cc1C)C(=O)C(N1CCOCC1)=C(c1ccccc1)C2=O	8	102	107	54*
O=C(CNC(=O)c1ccc2c(c1)OCO2)Nc1cccnc1	11	101	100	84
O=C(N/N=C/c1ccc(N2CCCCC2)cc1)c1cccnc1	-55	102	107	11
C=CCN(C(=O)c1ccc(C)s1)c1nc(-c2ccc(S(C)(=O)=O)cc2)cs1	-28	100	100	-8
c1ccc(Cn2nnc3c(Sc4nnc(-c5ccncc5)o4)ncnc32)cc1	-35	103	106	73
Cc1cc(NC(=O)CNCC2CCCCC2)no1	-9	102	102	11
N#Cc1nc(COc2cccc(Cl)c2)oc1N1CCCC1	-16	101	104	6
[O-][n+]1ccccc1SC1=COCCC1	-45	100	101	93
O=C(C1Sc2nnc(-c3ccccc3)n2NC1c1ccccc1)N1CCCCC1 (configuration not stated)	11	103	99	11
O=C(N/N=C/c1ccc2c(c1)OCCO2)c1ccncc1	-19	103	104	7
O=C1CCCN1CCC12CC3CC(CC(C3)C1)C2	-24	102	99	3
CC(C)c1cc[nH]c1-c1ccccc1	-16	140	184	nt
CC1CN(C(=O)C2CCC2)CC(C)O1 (configuration not stated)	nt	103	106	-9
CCn1c(-c2ccc(F)cc2)csc1=Nc1ccc(C)cc1	2	101	97	6

An excerpt of these results, bar-delimited:
mol | Mtb MenB inh | Polio RdRp inh | Polio RdRp inh intensity | Mtb MbtI inh
Cc1c2c(n3c(nc4ccccc43)c1C#N)N(CCN1CCOCC1)CC2 | -58 | 99 | 105 | 13
COC(=O)c1ccc(NC(=O)CC23CC4CC(CC(C4)C2)C3)cc1 | nt | 101 | 100 | -2
COC(=O)c1cc(OC(=O)c2ccccc2Br)n(C)n1 | -20 | 102 | 102 | 15
Cc1csc(=O)n1CN1CCN(C(=O)C2COc3ccccc3O2)CC1 (configuration not stated) | 7 | 101 | 103 | 26
COc1ccc(-c2nsc(SCC(N)=O)n2)cc1 | 1 | 101 | 107 | 3
CCOc1ccc(/C=N/OC(C)C(=O)NCc2ccc3c(c2)OCO3)cc1 (configuration not stated) | -6 | 98 | 101 | 4
COc1ccc2[nH]cc(NC(=O)NCCO)c(=O)c2c1 | -28 | 104 | 104 | 90
COc1ccc(CCNC(=S)NCCc2ccccc2)cc1OC | -31 | 101 | 110 | -14
CN(C(=O)CCC(=O)O)C1CCCCC1 | -12 | 99 | 102 | -3
O=C(Nc1cccc(C(F)(F)F)c1)c1ccc(-c2ccccc2)cc1 | -28 | 101 | 104 | 9
O=C(Nc1ncccc1O)c1ccc(Oc2ccccc2)cc1 | nt | 101 | 101 | 0
Cc1ccc(CN2CCN(C(=O)C3CC=CCC3C(=O)O)CC2)cc1 (configuration not stated) | -24 | 107 | 100 | -8
O=C(OCc1cn2cc(Cl)ccc2n1)C1=NN(c2ccccc2)C(=O)CC1 | -23 | 102 | 105 | -11
CC1(N=Cc2ccccc2)CCS(=O)(=O)C1 (configuration not stated) | 10 | 105 | 111 | -3
Cc1cc2c(cc1C)C(=O)C(N1CCOCC1)=C(c1ccccc1)C2=O | 8 | 102 | 107 | 54*
O=C(CNC(=O)c1ccc2c(c1)OCO2)Nc1cccnc1 | 11 | 101 | 100 | 84
O=C(N/N=C/c1ccc(N2CCCCC2)cc1)c1cccnc1 | -55 | 102 | 107 | 11
C=CCN(C(=O)c1ccc(C)s1)c1nc(-c2ccc(S(C)(=O)=O)cc2)cs1 | -28 | 100 | 100 | -8
c1ccc(Cn2nnc3c(Sc4nnc(-c5ccncc5)o4)ncnc32)cc1 | -35 | 103 | 106 | 73
Cc1cc(NC(=O)CNCC2CCCCC2)no1 | -9 | 102 | 102 | 11
N#Cc1nc(COc2cccc(Cl)c2)oc1N1CCCC1 | -16 | 101 | 104 | 6
[O-][n+]1ccccc1SC1=COCCC1 | -45 | 100 | 101 | 93
O=C(C1Sc2nnc(-c3ccccc3)n2NC1c1ccccc1)N1CCCCC1 (configuration not stated) | 11 | 103 | 99 | 11
O=C(N/N=C/c1ccc2c(c1)OCCO2)c1ccncc1 | -19 | 103 | 104 | 7
O=C1CCCN1CCC12CC3CC(CC(C3)C1)C2 | -24 | 102 | 99 | 3

Screening data: PubChem, ICCB-Longwood Screening Facility, Harvard Medical School
